# HEK293 viab: counter-screen for SNCA expression inhibitors: cell viability; 150,000 compounds, 0.12% hits; Potency, µM (highest dose often 57.1 µM), for the others: top-dose activity change, negative = cytotoxicity, usual class: cytotoxic; HEK-293-SNCA-luc viability, GF-AFC fluorescence, 24 h;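 further: 0% = DMSO-treated cells and -100% = medium-only wells without cells; nearly all actives have a fitted effect of over 30% in size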
#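 Cytotoxicity counterscreen: after 24 h compound treatment of genome-edited SNCA-luciferase HEK-293 cells, live-cell protease substrate GF-AFC read by fluorescence after 30 min; activity scaled between DMSO (0%) and medium-only (-100%), curves Hill-fitted.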
# GPT2 inh: inhibitors of human GPT2 alanine aminotransferase | Q8TD30 | Recombinant GPT2, coupled pyruvate oxidase/HRP Amplex Red fluorescence | Potency, µM (highest dose often 57.7 µM), inactives show at the highest dose activity change, negative = inhibition, most hits filed as inhibitors | 100,000 compounds, 0.25% hits; further: nearly all actives have a fitted effect of over 60% in size; many of its hits are not listed in these tables
# Target sequence (Q8TD30 whole entry, looked up): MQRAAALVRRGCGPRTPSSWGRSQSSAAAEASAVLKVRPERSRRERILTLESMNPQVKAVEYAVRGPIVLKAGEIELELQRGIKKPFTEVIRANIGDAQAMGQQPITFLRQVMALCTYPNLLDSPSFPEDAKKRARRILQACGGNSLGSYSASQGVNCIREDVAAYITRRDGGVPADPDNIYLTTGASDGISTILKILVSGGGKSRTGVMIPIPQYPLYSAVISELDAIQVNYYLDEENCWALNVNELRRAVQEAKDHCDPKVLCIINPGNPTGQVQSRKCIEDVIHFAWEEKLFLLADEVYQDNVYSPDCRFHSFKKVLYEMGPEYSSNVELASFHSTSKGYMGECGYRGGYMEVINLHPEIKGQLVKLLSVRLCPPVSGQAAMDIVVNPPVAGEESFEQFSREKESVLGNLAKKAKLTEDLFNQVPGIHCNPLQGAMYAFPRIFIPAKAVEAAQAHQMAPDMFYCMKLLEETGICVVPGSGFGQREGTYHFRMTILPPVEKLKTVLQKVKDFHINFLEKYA
#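 Fluorescence read-out: pyruvate from GPT2 turnover coupled to pyruvate oxidase, HRP and Amplex Red (0.2mM ThPP, 0.2U/mL PO and HRP, 50uM Amplex final). Substrates 250uM a-KG, 2mM L-alanine; enzyme 10ng/uL; 30 min RT.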
# HEK293 tox: cytotoxic compounds in HEK 293 cells; HEK 293 viability, ATP luminescence (CellTiter-Glo), 48-72 h; Potency, µM (doses to about 115 µM), inactives show top-dose activity change, negative = cytotoxicity, actives largely listed as inhibitors; 94,000 compounds, 6.6% hits; further: nearly all actives have a fitted effect of over 60% in size
#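 Luminescence from cellular ATP, measured with CellTiter-Glo, indicates HEK 293 viability. Cells plated at 250 cells/well are treated with compound for 48 or 72 hr at 37 degree Celsius before reagent addition.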
# FLuc inh: inhibitors of firefly (Photinus pyralis) luciferase. P08659. purified P. pyralis luciferase, luminescence, biochemical. Potency, µM (top dose mostly 115 µM), for inactives: at the highest dose activity change, negative = inhibition, hits mostly inhibitors. 76,000 compounds, 2.5% hits. AID 1347043; further: nearly all actives have a fitted effect of over 65% in size
# Target sequence (P08659 whole entry, looked up): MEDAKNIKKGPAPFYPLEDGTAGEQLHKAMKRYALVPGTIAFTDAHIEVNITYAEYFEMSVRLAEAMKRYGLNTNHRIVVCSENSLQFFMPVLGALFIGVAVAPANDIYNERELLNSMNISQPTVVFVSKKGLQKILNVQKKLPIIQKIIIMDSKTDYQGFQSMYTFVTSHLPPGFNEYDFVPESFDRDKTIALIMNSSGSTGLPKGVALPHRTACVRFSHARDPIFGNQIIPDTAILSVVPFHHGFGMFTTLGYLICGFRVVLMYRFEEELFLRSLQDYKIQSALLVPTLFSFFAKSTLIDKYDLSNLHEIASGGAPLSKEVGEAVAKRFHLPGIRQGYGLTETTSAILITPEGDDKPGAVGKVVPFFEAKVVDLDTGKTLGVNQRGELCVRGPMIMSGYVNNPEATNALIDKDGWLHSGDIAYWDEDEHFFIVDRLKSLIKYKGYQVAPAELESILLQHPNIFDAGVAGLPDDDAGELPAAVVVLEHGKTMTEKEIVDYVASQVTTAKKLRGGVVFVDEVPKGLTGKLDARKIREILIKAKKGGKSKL
#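 FLuc 10nM, D-luciferin 10uM, ATP 10uM, Mg acetate 10mM, Tris acetate pH 7.5, Tween/BSA; cpd qHTS; enzyme added last; CCD luminescence.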
# SNCA expr inh: reduces expression of the alpha-synuclein gene | HEK-293 SNCA-luciferase knock-in, luminescence, 24 h | Potency, µM (series often up to 57.2 µM), without a hit: top-dose activity change, negative = inhibition, hits mostly inhibitors | 140,000 compounds, 0.17% hits | AID 1671194;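 further: plate controls were DMSO cells for no effect and cell-free wells for full effect; nearly all actives have a fitted effect of over 45% in size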
# NIH3T3 tox: cytotoxic compounds in NIH 3T3 cells; NIH 3T3 viability, CellTiter-Glo ATP luminescence, 48-72 h; Potency, µM (series often up to 96.7 µM), for the others: top-dose activity change, negative = cytotoxicity, actives largely listed as inhibitors; 94,000 compounds, 4.3% hits; further: nearly all actives have a fitted effect of over 55% in size
#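 Luminescent ATP readout (CellTiter-Glo, 10 min RT) after 48 or 72 hr compound exposure of NIH 3T3 cells seeded at 400 cells/well in 1536-well format; quantitative HTS.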
# Numbers without * were called inactive; i = inactive; ? = inconclusive; / = not tested or not shown; & = joins results of further samples; [ ] = remark or other dose. The call rests on the fitted dose curve; in most records, active means well fitted curve in the direction sought with a large enough effect; inconclusive means small, poorly fitted or top-dose-only effect, or another doubt; inactive means no such curve, though single readings can be large; an effect the other way counts as inactive or inconclusive. Unless noted, on the % scale 0 is the no-effect control and ±100 the full control effect; potency means the concentration at half of the fitted maximal effect. These rows are one share of the data (hit frequency here may not be typical).
Compound	HEK293 viab	GPT2 inh	FLuc inh	NIH3T3 tox	SNCA expr inh	HEK293 tox
CCN(c1ccccc1)S(=O)(=O)c1ccc(NC(=O)c2cc(=O)c3c(C)cc(C)cc3o2)cc1	-12%	/	/	/	-1%	/
O=C(c1nc(-c2ccc(Cl)cc2Cl)c2cnccn12)N1CCOCC1	4%	i	/	-21%	28%	-8%
COc1ccc(CN2CCN3C(=O)N(C4CCOCC4)C[C@H]3C2)cc1	0%[87.6 µM]	-2%[88.5 µM]	7%[172 µM]	-17%[138 µM]	13%[87.6 µM]	-24%[172 µM]
O=C(NCc1nnc2n1CCCC2)c1cccc(C2CCNC2)c1 (stereo unspecified)	-11%	-16%	-13%	3%	-2%	?
COc1cccc(NC(=O)c2cnc3n[nH]c(-c4ccc(OC)cc4C)c3n2)c1	-1%[87.6 µM]	4%[88.5 µM]	14%[172 µM]	50µM*	33%[activator][87.6 µM]	100µM*
COc1ccccc1-c1nc(C(=O)N(C)C)n2ccncc12	12%	i	/	-16%	-11%	-1%
COc1ccc(-c2nc3n(n2)C(c2ccccc2)C(C(=O)Nc2cccnc2)=C(C)N3)cc1 (stereo unspecified)	-11%	/	/	/	-11%	/
Cn1nc(-c2ccccc2F)c2cc(C(=O)NCc3cccc(Cl)c3)sc21	-16%	/	/	/	-16%	/
CCc1cccc(NC(=O)c2cc3c(=O)n(Cc4ccc(OC)cc4)ccc3nc2C)c1	-3%	/	/	/	-1%	/
O=C(c1nc(-c2cc(Cl)cc(Cl)c2)c2ccccn12)N1CCCC1	5%	0%	0%	-3%	-19%	-18%
CCc1cc(=O)n(CC(=O)Nc2cccc(C(C)=O)c2)c(-c2cccc(F)c2)n1	-17%	i	6%	?	6%	?
Cc1cc(F)ccc1S(=O)(=O)Nc1ccc2c(c1)CCCN2C(=O)c1cccs1	-14%	/	/	/	?	/
Cc1cccc(NC(=O)c2sc(-n3nc(C)c(CCC(C)C)c3C)nc2C)c1	-4%	/	/	/	5%	/
COc1ccc(C2NC(=O)N(C)C3=C2C(=O)N(c2cccc(C(=O)O)c2)C3)cc1 (stereo unspecified)	?	/	/	/	39%[activator]	/
O=C(NCc1ccccc1)c1ccnc(-c2nnc3ccc(N4CCOCC4)nn23)c1	-5%[87.6 µM]	-6%[88.5 µM]	3%[172 µM]	?	45%[activator][87.6 µM]	?
Cc1ccc(Cl)cc1N1CCN(C(=O)CCc2nnc3n(C)c(=O)c4ccccc4n23)CC1	6%	/	/	/	26%	/
Cc1cccc(C)c1NC(=O)c1sc(-n2nc(C)c(Cc3ccc4c(c3)OCO4)c2C)nc1C	2%	/	/	/	-6%	/
CN1CCN(C(=O)C(=O)Nc2c3c(nn2-c2ccc(Cl)cc2)CSC3)CC1	4%	/	/	/	-6%	/
CC(C)c1ccc(NC(=O)Cn2cc(S(=O)(=O)Cc3ccccc3Cl)c3ccccc32)cc1	-15%	/	/	/	?	/
O=S(=O)(NCC(Nc1ccc(Cl)cc1)c1ccccc1)c1ccccc1 (stereo unspecified)	-21%	/	/	/	?	/
CCOC(=O)c1nnn(C(CC)C(=O)Nc2c(C)cccc2C)c1C(=O)OCC (stereo unspecified)	-4%	/	/	/	-3%	/
O=C(O)c1sc(Nc2ccccc2)nc1-c1ccccc1	0%	/	/	/	49%[activator]	/
COc1ccccc1CCNC(=O)C(=O)NCC(c1ccc2c(c1)OCO2)N1CCOCC1 (stereo unspecified)	8%	/	/	/	-13%	/
CCOc1ccc(C2C(C(=O)Nc3ccccc3C)=C(C)Nc3nnnn32)cc1 (stereo unspecified)	-1%	/	/	/	?	/
Cn1cc(CN2C[C@@H]3C[C@H](C2)c2ccc(NC(=O)c4cccs4)c(=O)n2C3)c2ccccc21	-1%	0%	-7%	i	-6%	?
O=C(NCc1cccs1)c1nc(-c2ccc(Cl)cc2Cl)c2ccccn12	2%	i	-6%	?	23%	?
COc1ccc(CCN2C(=O)N(c3ccc(C)cc3)C(=O)C2CC(=O)Nc2ccc(F)cc2)cc1 (stereo unspecified)	?	/	/	/	-11%	/
O=C1c2ccccc2CN1C1CCN([S+](=O)([O-])c2ccccc2)CC1	6%	i	/	-24%	0%	-26%
CN1CCOc2c(C(=O)NCc3cccnc3)cc(-c3cccc4[nH]ccc34)cc21	-7%[87.6 µM]	i	-13%[172 µM]	?	52%[activator][87.6 µM]	?
Cc1ccccc1-c1cnc2n[nH]c(-c3ccccc3)c2n1	-18%[87.6 µM]	-4%[88.5 µM]	-15%[230 µM]	50µM*	-14%[87.6 µM]	89µM*
COc1cccc(-c2cc(-c3ccncc3)c3cncn3c2)c1OC	6%[87.6 µM]	-12%[88.5 µM]	-13%[172 µM]	?	24%[87.6 µM]	89µM*
CCOCCCn1c(=N)c(C(=O)NCc2ccco2)cc2c(=O)n3ccccc3nc21	-17%	/	/	/	-6%	/
Cc1ccc2nc3c(cc(C(=O)NCc4ccco4)c(=N)n3C(C)C)c(=O)n2c1	2%	/	/	/	-16%	/
Cc1nc2ccn(Cc3cccnc3)c(=O)c2cc1C(=O)Nc1ccc(F)cc1F	?	/	/	/	44%[activator]	/
COc1cccc(CNC(=O)CCc2nnc3n(CC(C)C)c(=O)c4ccccc4n23)c1	-20%	/	/	/	19%	/
COc1ncccc1-c1cc(-c2ccc(=O)[nH]c2)c2cncn2c1	14%[87.6 µM]	?	12%[172 µM]	?	21%[87.6 µM]	?
CCOc1ccc(CN2C[C@@H](NC(=O)c3cccnc3)C[C@H]2CO)cc1	-4%	-5%	5%	-19%	-7%	-21%
CN1CCOc2c(C(=O)NCCC(N)=O)cc(-c3ccccc3F)cc21	2%[87.6 µM]	i	13%[172 µM]	?	21%[87.6 µM]	-19%[172 µM]
CCOCCCn1c(=N)c(C(=O)NC2CCCCC2)cc2c(=O)n3ccccc3nc21	?	/	/	/	14%	/
COc1ccc(CNC(=O)C(CC(C)C)N2Cc3ccccc3C2=O)cc1 (stereo unspecified)	?	/	/	/	-8%	/
CN1CCOc2c(C(=O)NCCc3cnc[nH]3)cc(-c3cccc4[nH]ccc34)cc21	-8%[87.6 µM]	i	?	89µM*	-5%[87.6 µM]	?
O=C(Nc1ccc2c(c1)CCCN2C(=O)c1cccs1)c1ccccc1Cl	-8%	/	/	/	23%	/
O=C(C1=NOC2CN(C(=O)C3CC3)CC12)N1CCCC1 (stereo unspecified)	8%[87.6 µM]	-7%[88.5 µM]	/	5%[138 µM]	3%[87.6 µM]	2%[172 µM]
O=C(O)c1ccc(-c2cccc(O)c2)cc1	2%[87.6 µM]	3%[88.5 µM]	/	-18%[174 µM]	2%[87.6 µM]	-6%[230 µM]
CN(C)C(=O)c1nc(-c2ccc(F)cc2)c2cnccn12	5%[87.6 µM]	5%[88.5 µM]	-4%[172 µM]	?	21%[87.6 µM]	-25%[172 µM]
O=C(NCc1ccc2c(c1)OCO2)c1cnc2c(c1)N(C(=O)CCc1ccccc1)CCC2	5%	i	11%	?	5%	?
Cc1cccc(C)c1NC(=O)C(=O)NCC(c1ccc2c(c1)OCO2)N1CCOCC1 (stereo unspecified)	7%	/	/	/	11%	/
O=c1c(O)c(-c2cc(O)c(O)c(O)c2)oc2cc(O)cc(O)c12	-9%&4%	?	/	/	25%&15%	/
N#Cc1ccc(CN2CC3(C2)C(=O)Nc2ccccc23)cc1	-3%[87.6 µM]	i	/	-28%[138 µM]	-20%[87.6 µM]	?
O=C(NCC(c1cccnc1)N1CCN(c2ccccc2F)CC1)c1ccc(F)cc1 (stereo unspecified)	-19%	/	/	/	-8%	/
CCc1ccccc1N(C)C(=O)c1cn(CC(C)C)c(=O)c2cc(OC)c(OC)cc12	-18%	/	/	/	-25%	/
N#Cc1cccc(NC(=S)O[C@@H]2CO[C@H]3[C@@H]2OC[C@@H]3n2nnnc2SCc2ccco2)c1	-9%	i	-11%	?	1%	?
Cc1ccc(-n2c(SCc3ccccc3F)nc3[nH]ncc3c2=O)cc1Cl	-19%	/	/	/	?	/
O=C(NCCN1CCOCC1)c1cccc(C2CCNC2)c1 (stereo unspecified)	-16%	-5%	-4%	-4%	0%	-2%
COc1ccccc1C(=O)NC1(C(F)(F)F)C(=O)Nc2c1c(=O)[nH]c(=O)n2-c1ccc(F)cc1 (stereo unspecified)	0%	/	/	/	17%	/
O=C(CSc1cn(CCNC(=O)c2ccccc2F)c2ccccc12)Nc1ccccc1F	-5%	/	/	/	-8%	/
CCOC(=O)c1c(NC(=O)COc2ccc(C)cc2C(C)(C)C)sc2c1CCC(C)C2 (stereo unspecified)	11%	/	/	/	10%	/
COC(=O)c1scc(-c2ccc(C)cc2)c1S(=O)(=O)Nc1cccc(C(F)(F)F)c1	-6%	/	/	/	-16%	/
CCC(C)n1c(=N)c(C(=O)NC2CCCC2)cc2c(=O)n3ccccc3nc21 (stereo unspecified)	?	/	/	/	10%	/
COC(=O)c1c(NC(=O)CCCOc2ccccc2C)sc2c1CCC(C)C2 (stereo unspecified)	1%	/	/	/	42%[activator]	/

# Following part:
Compound	HEK293 viab	GPT2 inh	FLuc inh	NIH3T3 tox	SNCA expr inh	HEK293 tox
Cc1cccc(-c2cnc3n[nH]c(-c4ccc5c(c4)OCO5)c3n2)c1	7%[87.6 µM]	i	7%[172 µM]	?	-22%[87.6 µM]	71µM*
O=C(O)c1ccc2nc(-c3cc4cc(Cl)ccc4oc3=O)[nH]c2c1	?	/	/	/	141%[activator]	/
O=C(c1cccc(Cl)c1)N1CCC(n2c(=O)[nH]c3ccccc32)CC1	-16%	-5%	/	-21%	22%	?
CCOC(=O)c1c(NC(=O)/C=C/c2ccc(Cl)cc2)sc2c1CCC(C)C2 (stereo unspecified)	10%	/	/	/	0%	/
CCOc1ccc(C(=O)N2CCC(c3nc(-c4ccc(S(=O)(=O)N5CCCC5)cc4)no3)CC2)cc1	3%	/	/	/	-7%	/
COc1ccc(C(=O)N2CCC(c3nc(-c4ccc(S(=O)(=O)N5CCCC5)cc4)no3)CC2)cc1	-9%	/	/	/	8%	/
CCOc1ccccc1C(=O)NC1(C(F)(F)F)C(=O)Nc2c1c(=O)[nH]c(=O)n2-c1ccc(F)cc1 (stereo unspecified)	0%	/	/	/	14%	/
CC(C)c1ccc(NC(=O)Cn2nnc(C(=O)NCCc3ccccc3)c2N)cc1	0%	/	/	/	-16%	/

# Given with each value named: entries from further up
Cc1ccc2nc3c(cc(C(=O)NCc4ccco4)c(=N)n3C(C)C)c(=O)n2c1
  HEK293 viab = 2%; GPT2 inh = /; FLuc inh = /; NIH3T3 tox = /; SNCA expr inh = -16%; HEK293 tox = /
Cc1nc2ccn(Cc3cccnc3)c(=O)c2cc1C(=O)Nc1ccc(F)cc1F
  HEK293 viab = ?; GPT2 inh = /; FLuc inh = /; NIH3T3 tox = /; SNCA expr inh = 44%[activator]; HEK293 tox = /
COc1cccc(CNC(=O)CCc2nnc3n(CC(C)C)c(=O)c4ccccc4n23)c1
  HEK293 viab = -20%; GPT2 inh = /; FLuc inh = /; NIH3T3 tox = /; SNCA expr inh = 19%; HEK293 tox = /
COc1ncccc1-c1cc(-c2ccc(=O)[nH]c2)c2cncn2c1
  HEK293 viab = 14%[87.6 µM]; GPT2 inh = ?; FLuc inh = 12%[172 µM]; NIH3T3 tox = ?; SNCA expr inh = 21%[87.6 µM]; HEK293 tox = ?

# Screening data deposited in PubChem BioAssay by National Center for Advancing Translational Sciences (NCATS).
